# Source: PubChem
# SARS PLpro yeast: inhibitors of SARS-CoV papain-like protease in yeast. S. cerevisiae expressing SARS-CoV PLpro, growth rescue; control for the full effect not named in the record. Potency, µM (titrated, usually from 32.9 µM), without a hit: top-dose activity, positive = growth rescue. 0.19% of 330,000 active. AID 485353; note: 0% is about no effect; nearly all actives have a fitted effect of over 55% in size; growth read by luminescence after 48 h
# MARV entry inh: blocks Marburg virus binding to or entry into cells; Potency, µM (doses to about 37.8 µM), inactives show at the highest dose activity change, negative = inhibition, most hits filed as inhibitors; Marburg virus pseudotyped entry inhibition, cell reporter; control for the full effect not named in the record; about a third of the inactives were read at about 46 µM; 1.8% of 300,000 active; active = well fitted inhibition curve with a large enough effect; inconclusive = small, poorly fitted or top-dose-only effect, or effect the other way; inactive = flat fitted curve, though single readings scatter; tested in HEK293 cells; about a fifth of its hits are not listed in these tables; note: % is set by controls: 0 for no effect and ±100 for the full control effect; luciferase read-out
# Cruzain inh noDet: cruzain (T. cruzi) inhibition without detergent | P25779 | purified cruzain, Z-FR-AMC fluorescence, no detergent | Potency, µM, for inactives: max response, negative = inhibition, usual class: inhibitors | 2.3% of 200,000 active | AID 1476; active = well fitted curve in the direction sought with a large enough effect; inconclusive = small, poorly fitted or top-dose-only effect, or another doubt; inactive = no such curve, though single readings can be large; an effect the other way counts as inactive or inconclusive;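 note: plate controls were enzyme without inhibitor for no effect and buffer without enzyme for full effect; nearly all actives have a fitted effect of over 40% in size; top concentration of the series not given in the record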
# Target sequence (P25779 123-467 limits assumed): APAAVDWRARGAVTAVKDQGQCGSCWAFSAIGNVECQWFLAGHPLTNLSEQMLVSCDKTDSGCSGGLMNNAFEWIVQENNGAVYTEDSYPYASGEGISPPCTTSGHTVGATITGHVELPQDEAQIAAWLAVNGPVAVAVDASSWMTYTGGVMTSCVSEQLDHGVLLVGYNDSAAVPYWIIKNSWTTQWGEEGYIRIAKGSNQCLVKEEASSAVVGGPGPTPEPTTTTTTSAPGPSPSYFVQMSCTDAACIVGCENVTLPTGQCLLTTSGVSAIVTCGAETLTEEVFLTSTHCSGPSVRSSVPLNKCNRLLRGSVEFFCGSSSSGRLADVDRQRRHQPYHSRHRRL
#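 Purified cruzain at 1.5 nM, pre-incubated 15 min with compound at room temperature in 100 mM sodium acetate pH 5.5, 5 mM DTT, 0.00005% Triton X-100. Reaction started with 2 uM Z-FR-AMC; AMC fluorescence increase over 60 s gives rate.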
# Lassa entry inh: inhibitors of Lassa virus binding or cell entry; Lassa virus pseudotype entry inhibition, cell reporter; control for the full effect not named in the record; Potency, µM (series often up to 37.9 µM), inactives show at the top dose activity change, negative = inhibition, most hits filed as inhibitors; 1.2% of 300,000 active; active means well fitted inhibition curve with a large enough effect; inconclusive means small, poorly fitted or top-dose-only effect, or effect the other way; inactive means flat fitted curve, though single readings scatter; tested in HEK293 cells; note: % is set by controls: 0 for no effect and ±100 for the full control effect; nearly all actives have a fitted effect of over 50% in size; luciferase read-out
# Cruzain inh Det: inhibitors of Trypanosoma cruzi cruzain with detergent. purified cruzain, Z-FR-AMC fluorescence, 0.01% Triton. 0.43% of 200,000 active. P25779. Potency, µM, without a hit: max response, negative = inhibition, usual class: inhibitors; active = well fitted curve in the direction sought with a large enough effect; inconclusive = small, poorly fitted or top-dose-only effect, or another doubt; inactive = no such curve, though single readings can be large; an effect the other way counts as inactive or inconclusive;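 note: plate controls were neutral wells for no effect and buffer without enzyme for full effect; nearly all actives have a fitted effect of over 40% in size; top concentration of the series not given in the record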
#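 15 min RT preincubation of 1.5 nM cruzain with compound, then 2 uM Z-FR-AMC added; kinetic AMC fluorescence, 60 s delta. Triton X-100 0.01%, pH 5.5.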
# NS1 function inh: influenza NS1 inhibition; Potency, µM (series often up to 46.1 µM), for the others: at the highest dose activity, positive = more growth; S. cerevisiae slowed by influenza A NS1, growth recovery by OD600; AID 2326; 0.4% of 270,000 active; note: actives are rising curves; nearly all actives have a fitted effect of over 50% in size
#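 In this qHTS, NS1 from influenza A is expressed in budding yeast, where it slows growth. Cells are switched from glucose to 2% galactose medium (pH 6.0, -URA), treated with compound, and growth recovery is read at OD600.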
# StopGo reporter: lowers the luciferase signal of an FMDV 2A StopGo reporter; human cells with a luciferase reporter of 2A StopGo recoding; control for the full effect not named in the record; Potency, µM (top dose mostly 57.9 µM), for the others: at the highest dose signal change, negative = less light; 1.2% of 410,000 active; AID 1159524; active = well fitted falling curve with a large enough effect; inconclusive = small, poorly fitted or top-dose-only effect; inactive = no such curve, though single readings can be large or run the other way; tested in HEK293T cells; note: % is set by controls: 0 for no effect and ±100 for the full control effect; nearly all actives have a fitted effect of over 45% in size; luciferase light after 4 h
# RE007 growth inh: less growth of the S. pombe RE007 Vpr strain; S. pombe RE007 Vpr strain, BacTiter-Glo ATP luminescence, 24 h; control for the full effect not named in the record; Potency, µM (top dose mostly 92.2 µM), for the others: top-dose activity change, negative = less growth; 0.21% of 360,000 active; active = well fitted falling curve with a large enough effect; inconclusive = small, poorly fitted or top-dose-only effect; inactive = no such curve, though single readings can be large or run the other way;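 note: % is set by controls: 0 for no effect and ±100 for the full control effect; nearly all actives have a fitted effect of over 50% in size; the assay follows cell death caused by Vpr and the record does not say whether a fall means rescue or toxicity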
#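 Fission yeast RE007 carrying one integrated HIV-1 vpr copy, seeded at OD 0.01 in PMG+AL medium with 23 nL pinned compound. Grown 24 h at 30 degrees; viability read by BacTiter-Glo luminescence after 5 min.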
# Starred values were filed as active, the others as inactive; ? = inconclusive; . = no result given; & = joins results of further samples; [ ] = another dose, or the depositor's remark. Unless noted, calls come from the whole dose curve; as a rule, active means well fitted rising curve with a large enough effect; inconclusive means small, poorly fitted or top-dose-only effect; inactive means no such curve, though single readings can be large or run the other way. Potency is the fitted concentration of half-maximal effect.
SMILES,SARS PLpro yeast,MARV entry inh,Cruzain inh noDet,Lassa entry inh,Cruzain inh Det,NS1 function inh,StopGo reporter,RE007 growth inh
CC(=O)Nc1ccc(NC(=O)C(C)n2nc(C)c([N+](=O)[O-])c2C)cc1 (configuration not stated),0%,.,.,.,.,6%,6%,-5%
COc1ccc(C)c2sc(=NC(=O)C(C)C)n(C)c12,-4%,.,8%,.,7.1%,-59%,-16%,-2%
CCc1ccc(-n2c3nc(=O)[nH]c(=O)c-3cc3c(C)nn(-c4ccccc4)c32)cc1,.,2%[46.1 µM],2%,?,0.1%,.,4%,.
CCN(c1ccc(OCC(=O)OCC(=O)Nc2ccc(F)c(F)c2F)cc1)S(=O)(=O)c1ccccc1,-1%,13%,1%,5%,-9.4%,-32%,8%,5%
Cn1c(=O)cc(OCC(=O)NCCCN2CCN(Cc3ccccc3)CC2)c2ccccc21,3%,.,3%,.,1.5%,11µM*,8%,1%
CCOc1ccc(N2C(=O)c3[nH]nc(-c4ccc(OC)cc4)c3C2c2cccs2)cc1 (configuration not stated),.,7.9µM*,?,?,-9.3%,.,40µM*,.
Cc1ccc(C(=O)Nc2cccc(C(=O)NC3CCCC3)c2)cc1,-6%,8%,.,-15%,.,10%,-23%,-8%
COC(=O)c1cc2oc(C)cc2n1Cc1ccc(Cl)cc1,.,.,-20%,-12%[46.1 µM],-1.2%,.,-4%,.
O=C(Cc1ccccc1)Oc1cccc(N2C(=O)CCC2=O)c1,11%,-3%,5%,-10%,4.4%,0%,-2%,19%
Cc1cccc(CS(=O)(=O)Cc2ccc(C(=O)N3CCC4(CC3)OCCO4)o2)c1,6%,12%,-1%,2%,3.4%,3%,8%,1%
COc1ccc2c(c1)N(C)/C(=C1/SC(=S)N(NC(C)=O)C1=O)S2,0%,.,.,.,.,-2%,-4%,4%
Cc1ccc(C)c(NC(=O)Cn2cnc3c(oc4ccccc43)c2=O)c1,1%,6%&6%[46.1 µM],-17%,9%,-8.2%,.,17%&-9%,-26%
COc1cccc(-n2cnnc2SC(C)C(=O)NC2CCCC2)c1 (configuration not stated),6%,25%,.,16%,.,.,-8%,1%
Cc1ccc(NS(=O)(=O)c2ccc3c(c2)CCN3C(=O)CCC(=O)O)cc1Cl,-1%,.,.,.,.,6%,61%[activator],1%
Cc1cccc(N2CCN(C(=O)CSCc3c(C)noc3C)CC2)c1C,-10%,?,28%,?,-2.5%,-110%,?,19%
c1ccc(-c2csc3ncnc(NCc4ccccn4)c23)cc1,0%,.,.,.,.,-7%,16µM*,6%
CC(=O)c1ccc(NC(=O)Nc2ccc3snnc3c2)cc1,.,5%[46.1 µM],-22%,?,-11%,.,30%[activator],.
O=C(Nc1ccccc1Cl)N1CCN(Cc2ccc3c(c2)OCO3)CC1,-1%,12%[46.1 µM],.,5%,.,.,-22%,-2%
COC(=O)c1c(NC(=O)c2ccc(S(=O)(=O)N3CCCCC3C)cc2)sc2c1CCN(C(C)C)C2 (configuration not stated),.,.,-8%,?,0.6%,.,0%,.
COc1cccc(CN2C(=O)CCC2(C)C(=O)NCCc2ccc(OC)c(OC)c2)c1 (configuration not stated),-1%,17%[46.1 µM],.,?,.,0%,-8%,-18%
Cc1cc(C)cc(N(CC(=O)NC2CCCC2)S(=O)(=O)c2c(C)[nH]c(=O)[nH]c2=O)c1,-1%,.,.,.,.,-2%,-20%,8%
Cn1nc(C(=O)OCC(=O)NC2CCS(=O)(=O)C2)c2ccccc2c1=O (configuration not stated),-1%,13%[46.1 µM],.,4%,.,.,-16%,-5%
COC(=O)c1sc2ccc(C)cc2c1C(=O)OC,.,17%,.,13%,.,.,-1%,-24%
CN(CC(=O)Nc1ccc(F)c(F)c1F)C(=O)c1ccc(=O)[nH]c1,-11%,-21%[46.1 µM],.,1%[46.1 µM],.,-37%,2%,-17%
COc1cccc(N2C(=O)C(CC(=O)Nc3ccc(Cl)cc3)N(Cc3ccc4c(c3)OCO4)C2=O)c1 (configuration not stated),.,?,2%,?,-3.8%,.,47%[activator],.

# New compounds follow:
SMILES,SARS PLpro yeast,MARV entry inh,Cruzain inh noDet,Lassa entry inh,Cruzain inh Det,NS1 function inh,StopGo reporter,RE007 growth inh
Cc1ccn2c(/C=N/OCc3ccc(F)cc3)c(-c3ccc(Cl)cc3)nc2c1,5%,?,-21%,4%,-7.7%,7%,0%,0%
Cc1[nH]c2ccccc2c1/C=N/NC(=O)CCC(=O)Nc1ccccc1,0%,?,.,3%,.,-2%,-30%,9%
Cc1ccc2[nH]c(CSc3nnc(NC(=O)COc4ccccc4F)s3)cc(=O)c2c1,.,.,-17%,?,3.1%,.,-25%,.
O=C(c1cccc([N+](=O)[O-])c1)N1CCc2ccccc21,-6%,.,.,.,.,3%,16%,-2%
O=C1COc2ccc(-c3csc(=Nc4ccc(OC(F)F)cc4)n3CC3CCCO3)cc2N1 (configuration not stated),-4%,-15%,5%,?,-5.8%,2%,22µM*,-6%
O=C(O)c1sc2cc(C(F)(F)F)cnc2c1-c1ccccc1,8%,1%,16µM*,1%,?,8%,2%,-2%
Cc1cc(N2CCOCC2)n2cc(-c3ccccc3)nc2n1,1%,0%,.,0%,.,.,-12%,-8%
COc1ccc(N2CCN(CC(O)COc3ccc(C)c(C)c3)CC2)cc1 (configuration not stated),-1%,-23%[46.1 µM],2%,?,0.1%,-3%,-8%&-14%,-6%
CCn1c(CNC(=O)c2ccc(OC)c(OC)c2)nnc1SCC(=O)Nc1ccccc1,?,40%,-8%,0%,-0.6%,-15%,-11%,6%
COc1ccc(C2CC(=O)C3=C(C2)Nc2ncnn2C3c2ccccc2)cc1 (configuration not stated),2%,0%,-7%,-14%,2.5%,-8%,-32%,-2%
Cc1ccc(S(=O)(=O)N2CCOCC2)cc1C(=O)OCC(=O)N1CCCC1=O,-6%,5%[46.1 µM],.,-8%[46.1 µM],.,.,-8%,-7%
Cc1ccc(NC(=O)c2c(C)nc3sc(C(=O)NC4CCCC4)c(N)c3c2-c2ccco2)c(C)c1,12%,-1%,1%,10%,1.0%,7%,-15%,-9%
O=[N+]([O-])c1ccc(C(O)CN2CCN(C/C=C/c3ccccc3)CC2)cc1 (configuration not stated),0%,?,.,11%,.,-3%,0%,-9%
CCN(CC)CCCNC(=O)c1ccc(N2CCCCC2)c(NS(=O)(=O)c2ccc(C)cc2)c1,-1%,15µM*,.,11%,.,.,9%,-13%
NCCC(=O)N1c2ccccc2Sc2ccccc21,2%,?,.,-7%[46.1 µM],.,3%,-14%,2%
CCCCC1=CC2=CC(=O)C(C)(OC(=O)CC)C(=O)C2=CN1CCc1ccc(Br)cc1 (configuration not stated),3%,.,.,.,.,6%,-14%,-4%
Cc1ccsc1S(=O)(=O)N1CCC(CO)(CC2CCCCO2)CC1 (configuration not stated),-2%,-4%[46.1 µM],.,?,.,-4%,-24%,15%
CCOC(=O)c1cc(NC(=O)CN2CCCC2)cc(C(=O)OCC)c1,1%,?,.,-1%[46.1 µM],.,?,18%,0%
COc1ccc(S(=O)(=O)N2CCC3(CC2)CC(=O)c2ccccc2O3)cc1OC,-4%,?,.,4%,.,.,-11%,1%
CCc1ccc(N(CC)C(=O)c2cc3c(=O)oc4ccc(C)cc4c3s2)cc1,.,7%[46.1 µM],-7%,-25%[46.1 µM],0.7%,.,-14%,.
CC(C)NC(=O)c1cnn2c1NC(c1cccs1)CC2C(F)(F)F (configuration not stated),-2%,-8%,1%,1%,0.2%,0%,12%,14%
CCOc1cccc(C(=O)NC2CCCCC2)c1,4%,3%,-4%,4%,2.9%,-8%,.,-15%
O=C(Oc1ccccc1)c1ccc2c(c1)C(=O)N(Cc1ccncc1)C2=O,0%,13%[46.1 µM],.,-7%,.,-7%,-23%,7%
Cc1ccc(-c2cc(C(=O)N(Cc3ccc(C(C)(C)C)cc3)Cc3ccco3)no2)cc1,.,-25%[46.1 µM],-9%,5%[46.1 µM],2.8%,.,-11%,.

# Entries shown so far that contain a CF3 group, in the order listed:
SMILES,SARS PLpro yeast,MARV entry inh,Cruzain inh noDet,Lassa entry inh,Cruzain inh Det,NS1 function inh,StopGo reporter,RE007 growth inh
O=C(O)c1sc2cc(C(F)(F)F)cnc2c1-c1ccccc1,8%,1%,16µM*,1%,?,8%,2%,-2%
CC(C)NC(=O)c1cnn2c1NC(c1cccs1)CC2C(F)(F)F (configuration not stated),-2%,-8%,1%,1%,0.2%,0%,12%,14%

# 6 structures from above, ordered by count of non-hydrogen atoms, rising:
SMILES,SARS PLpro yeast,MARV entry inh,Cruzain inh noDet,Lassa entry inh,Cruzain inh Det,NS1 function inh,StopGo reporter,RE007 growth inh
Cc1ccsc1S(=O)(=O)N1CCC(CO)(CC2CCCCO2)CC1 (configuration not stated),-2%,-4%[46.1 µM],.,?,.,-4%,-24%,15%
O=C(Oc1ccccc1)c1ccc2c(c1)C(=O)N(Cc1ccncc1)C2=O,0%,13%[46.1 µM],.,-7%,.,-7%,-23%,7%
COc1ccc(C2CC(=O)C3=C(C2)Nc2ncnn2C3c2ccccc2)cc1 (configuration not stated),2%,0%,-7%,-14%,2.5%,-8%,-32%,-2%
CCCCC1=CC2=CC(=O)C(C)(OC(=O)CC)C(=O)C2=CN1CCc1ccc(Br)cc1 (configuration not stated),3%,.,.,.,.,6%,-14%,-4%
CCn1c(CNC(=O)c2ccc(OC)c(OC)c2)nnc1SCC(=O)Nc1ccccc1,?,40%,-8%,0%,-0.6%,-15%,-11%,6%
O=C1COc2ccc(-c3csc(=Nc4ccc(OC(F)F)cc4)n3CC3CCCO3)cc2N1 (configuration not stated),-4%,-15%,5%,?,-5.8%,2%,22µM*,-6%
